Bioassay records from PubChem.
HCMV UL50-53 inh – inhibitors of HCMV UL50-UL53 interaction, biochemical, HTRF; normalized percent inhibition; inhibition, % (no concentration beside the values); 190,000 tested, 0.15% active;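 active = both replicates at 50% or more, plus weaker picks with an unusually low signal ratio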;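 note: stock transfer was 100 nL into about 20 µL; 0% = negative control wells and 100% = wells with untagged competitor protein; inactives centre near -12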
Numbers without * were called inactive; & = joins results of further samples. This is a subset. The share of hits here may be higher or lower than overall.

SMILES	HCMV UL50-53 inh
O=S(=O)(NCCO)c1cc(Cl)ccc1Cl	-2
C=CCn1c(=NC(=O)c2ccc(F)cc2)sc2cc(C(=O)OC)ccc21	-15
O=C(O)CN1C(=O)S/C(=C\c2ccccc2Cl)C1=O	-47
O=C(CSc1nnnn1-c1ccccc1)Nc1ccc(-c2ccccc2)cc1	-17
CC(C)c1nnc(NC(=O)C(C)(C)C)s1	-6
COc1ccc2[nH]cc(/C=C(/C#N)S(=O)(=O)c3ccccc3)c2c1	-13
O=C(O)C=Cc1ccc(Cn2ccnc2)cc1	-3&-3&-88
Cc1nc(C#Cc2ccnc(Cl)c2)c(C)n1-c1ccc(OC(F)(F)F)cc1	-22
CCOc1ccc(-c2csc(/C(C#N)=C/Nc3ccccc3OC)n2)cc1	-4
CCCCCOc1ccccc1C(O)CC#CCCCC(=O)OC (configuration not stated)	-14&-14
Fc1ccc(CSc2c[nH]c3ccccc23)cc1	-4
Cc1ccccc1CN1C2=NCCN2C(=O)C2=C1CCN(Cc1ccccc1)C2	2
CCN1C(=O)c2cccc3c(S(=O)(=O)NC4CC(C)(C)NC(C)(C)C4)ccc1c23	-59
C=CCc1ccccc1OCC(O)CN1CCN(c2ccccc2OC)CC1 (configuration not stated)	-1
N[C@H](C(=O)O)c1ccc(C(=O)O)c(C(=O)O)c1	-9
CO[C@H]1C[C@@H]2CC[C@@H](C)[C@@](O)(O2)C(=O)C(=O)N2CCCC[C@H]2C(=O)O[C@H]([C@@H](C)C[C@@H]2CC[C@@H](O)[C@H](OC)C2)CC(=O)[C@H](C)/C=C(\C)[C@@H](O)[C@@H](OC)C(=O)[C@H](C)C[C@H](C)/C=C/C=C/C=C/1C	-6&-6
COc1ccccc1C(=O)NC(C)C(c1cccs1)N1CCN(C)CC1 (configuration not stated)	6
CNc1nc(-c2ccc3c(N)n[nH]c3c2)cc(N2CC(C(=O)NC3CCCCC3)CCC2C)n1 (configuration not stated)	-51
COc1ccc(C(=O)c2nccc3ccccc23)cc1	-30
Cn1ccnc1C(=O)c1cccc(-c2ccccc2Cl)c1	-9
Cc1nnc(NC(=O)CC23CC4CC(CC(C4)C2)C3)s1	-2
O=C1NC(=O)c2cc(Nc3ccc(F)cc3)c(Nc3ccc(F)cc3)cc21	-23&-6
O=C(O)C(C(=O)O)c1ccccc1	-25
Cc1nc2ccccc2nc1SCC(=O)N1CCCC1	-18
CC1(C)CC(=O)c2sc(NC(=O)CCOc3ccccc3)nc2C1	1
COC(=O)c1ccc(OCc2ccc(Cl)nc2)cc1	-4
CCC(=O)OCC(=O)[C@]1(OC(=O)CC)C(C)C[C@H]2[C@@H]3CCC4=CC(=O)C=C[C@]4(C)[C@]3(Cl)C(O)C[C@@]21C (some centres not stated)	-20
CC(C)(C)C(=O)Nc1sc2c(c1C#N)CCN(Cc1ccccc1)C2	-17
O=C(O)CCC/C=C\C[C@@H]1[C@@H](/C=C/C(F)(F)COc2ccccc2)[C@H](O)C[C@@H]1O	-12&-12
O=C(Nc1nc2ccc(Cl)cc2s1)C1COc2ccccc2O1 (configuration not stated)	-8
COC(=O)c1nn(CC(=O)Nc2cnn(C)n2)c2ccccc12	3
CC(=O)C1(O)CCC2C3CC(C)C4=CC(=O)C=CC4(C)C3(F)C(O)CC21C (configuration not stated)	-38
CCOc1cc(C(CS(C)(=O)=O)N2C(=O)c3cccc(NC(C)=O)c3C2=O)ccc1OC (configuration not stated)	-76
CC(C)Sc1nnc(CSc2ncccn2)n1-c1ccc(F)cc1	7
CC(C)Cn1c(NN)nc2ccccc21	-23
CN1CCC(c2c(O)cc(O)c3c(=O)cc(-c4ccccc4Cl)oc23)C(O)C1 (configuration not stated)	2&-4&-9
COc1ccc(NC(=O)CS(=O)(=O)c2cn(Cc3cccc(F)c3)c3ccccc23)cc1	-15
CS/C(NC(=O)c1ccccc1)=C1\CCCCC1=O	-4
OC(CCN1CCCCC1)(c1ccccc1)c1ccccc1	-2
CC(C)(O)C1CC[C@@](C)([C@@H]2C(O)C[C@@]3(C)[C@@H]4CC(OC5OC(CO)C(O)C(O)C5O)[C@H]5C(C)(C)C(OC6OCC(O)C(O)C6O)CC[C@@]56C[C@]46CC[C@]23C)O1 (some centres not stated)	-8
c1ccc(CCNc2ncnc3nc[nH]c23)cc1	-8
CCOC(=O)c1cnc2c(c(C)nn2CC)c1Cl	6
Cc1c(C)c2c(c(C)c1O)CC[C@@](C)(CCC[C@H](C)CCC[C@H](C)CCCC(C)C)O2	2
COc1ccccc1Nc1ccc2ccccc2c1	-11
O=C(O)CCC/C=C\C[C@H]1C(=O)C=C[C@@H]1/C=C/[C@@H](O)CCc1ccccc1	-15&-15
CC1CN(CC(O)COc2ccc(C3CCCCC3)cc2)CC(C)O1 (configuration not stated)	0
CN(C)c1cc(C(F)(F)F)nc(-c2ccccn2)n1	-2
COc1ccccc1Oc1ccc(S(N)(=O)=O)cc1	1
Cc1ccc(C23CC4CC(CC(C(=O)NCC(=O)O)(C4)C2)C3)cc1	-10
NC(=O)c1ccsc1NC(=O)c1ccc2c(c1)CCCC2	7
CC(C)(C)NC(=O)C12CC3CC(CC(C3)C1)C2	8
O=C(NCCO)c1ccc(Nc2nc(-c3ccccc3)c3cc(Cl)ccc3n2)cc1	-14
Nc1[nH]c(=O)[nH]c(=O)c1N	-90
O=C(CCC1CCCC1)Nc1c2c(nn1-c1ccc(F)cc1)CS(=O)(=O)C2	-15
COC(=O)C1=C(C)Nc2ncnn2C1c1ccccc1 (configuration not stated)	-25
OCc1ccc(-c2ccc(-c3ccc(CO)s3)o2)s1	-48&-12&-12
CCCCC[C@H](O)/C=C/[C@@H]1[C@H]2C[C@H](CCCCC(=O)O)O[C@H]2C[C@H]1O	-22&-22
COc1ccc2nc(Cl)sc2c1	-2
Cc1oc2nc(SCC(=O)NC3CCCCC3)nc(N)c2c1C	-1
COc1cc(OC)cc(C(=O)Nc2nc3ccc4ccccc4c3s2)c1	-25

Part of the list above in order of count of non-hydrogen atoms, smallest number first:
SMILES	HCMV UL50-53 inh
CC(C)(C)NC(=O)C12CC3CC(CC(C3)C1)C2	8
CCCCC[C@H](O)/C=C/[C@@H]1[C@H]2C[C@H](CCCCC(=O)O)O[C@H]2C[C@H]1O	-22&-22
COc1cc(OC)cc(C(=O)Nc2nc3ccc4ccccc4c3s2)c1	-25

Single values from the entries so far.
Under HCMV UL50-53 inh, OCc1ccc(-c2ccc(-c3ccc(CO)s3)o2)s1 shows -48&-12&-12
Under HCMV UL50-53 inh, O=C(NCCO)c1ccc(Nc2nc(-c3ccccc3)c3cc(Cl)ccc3n2)cc1 shows -14

The listing picks up with the six entries that preceded the break.
SMILES	HCMV UL50-53 inh
COC(=O)C1=C(C)Nc2ncnn2C1c1ccccc1 (configuration not stated)	-25
OCc1ccc(-c2ccc(-c3ccc(CO)s3)o2)s1	-48&-12&-12
CCCCC[C@H](O)/C=C/[C@@H]1[C@H]2C[C@H](CCCCC(=O)O)O[C@H]2C[C@H]1O	-22&-22
COc1ccc2nc(Cl)sc2c1	-2
Cc1oc2nc(SCC(=O)NC3CCCCC3)nc(N)c2c1C	-1
COc1cc(OC)cc(C(=O)Nc2nc3ccc4ccccc4c3s2)c1	-25
COc1ccc2[nH]c(I)c(CCNC(C)=O)c2c1	-9
O=C(Nc1nnc(/N=C/c2cccs2)s1)c1ccc(Cl)cc1Cl	-11
Cc1nc2cc(S(=O)(=O)C(F)(F)F)ccc2s1	-12
Nc1cc(C(F)(F)F)ccc1NCCC(=O)O	-8
O=C(CN1C(=O)CCC1=O)Nc1ccc(Br)cc1	-16
CC(=O)Oc1ccc(N2C(=O)C3C4C=CC(O4)C3C2=O)cc1 (configuration not stated)	3
CC(=O)OCC(=O)[C@@]1(O)CC[C@H]2[C@@H]3C[C@H](C)C4=CC(=O)C=C[C@]4(C)[C@H]3[C@@H](O)C[C@@]21C	-46
O=C(Nc1nc2c(s1)CCCC2)C1=COCCO1	0
Cc1cc(O)c(/C=N/c2ccccn2)c(=O)o1	-4&-7
COc1ccc(-c2noc(C3CC(C(C)C)=NO3)n2)c(OC)c1 (configuration not stated)	1
CC1CN(C(=O)Cn2c(C(F)(F)F)nc3ccccc32)CC(C)O1 (configuration not stated)	-12
CC(C)(C)C(=O)Nc1ccc2c(c1)CC(=O)N2	37&37
CC(=O)N[C@@H](CSC/C=C(\C)CC/C=C(\C)CC/C=C(\C)CCC=C(C)C)C(=O)O	-20&-20&-7
COc1cccc(N2C(=O)/C(=C/c3ccco3)SC2=S)c1	-13
O=S(=O)(c1ccc2c(c1)OCCO2)N1CCN(Cc2ccccc2)CC1	14
CCC(=O)NCCCc1nc2ccccc2n1C	-9
CCCC(=O)Nc1nnc(-c2ccc(Cl)cc2)o1	0
c1ccc2oc(SCc3cn4ccccc4n3)nc2c1	-4
O=C(Nc1ccccc1)NC12CC3CC(CC(C3)C1)C2	-8
CCCN(C/C=C/I)C1CCc2cccc(O)c2C1 (configuration not stated)	-5
Cc1ccc(S(=O)(=O)c2cc3ccccc3oc2=O)cc1C	0
CC[C@H]1[C@@H]2C=C[C@@H]3[C@H]4C/C=C\C(=O)NCCC[C@@H]5NC(=O)C(=C5O)C(=O)CC[C@@H]4C[C@@H]3[C@H]2C[C@H]1C	-19
CCCCn1c(CNC(=O)c2cccs2)nc2ccccc21	-13
CC1CCCN(S(=O)(=O)c2ccc(Cl)cc2)C1 (configuration not stated)	-9
CCC(CC)C(=O)NCCc1cc2ccc(OC)cc2[nH]c1=O	4
O=C(c1ccco1)N1CCN(CCOc2ccccc2)CC1	-2
OCCN=c1scc(-c2ccc(Br)cc2)n1-c1ccccc1	-17
CCC(O)/C=C/C=O (configuration not stated)	-11&-11
Cc1onc(-c2c(Cl)cccc2Cl)c1C(=O)NC1C(=O)N2C1SC(C)(C)C2C(=O)O (configuration not stated)	-10
CCN1C(=O)CC(c2ccccc2)Sc2ccccc21 (configuration not stated)	-17
CC(C)[C@H](CO)Nc1nc(Nc2cc(N)cc(Cl)c2)c2ncn(C(C)C)c2n1	-5&-5
CC1CN(C(=O)c2cccs2)CCN1C(=O)c1cccs1 (configuration not stated)	-10
O=C(NCC(c1ccccc1)c1ccccc1)Nc1nncs1	-1&-1
CCc1ccc(S(=O)(=O)N2CCOCC2)cc1	-8
O=C(/C=C/c1ccco1)C1=C(O)c2ccccc2C1=O	-23
Cc1cccc2c(=O)n(Cc3ccc(Cl)s3)cnc12	9

A different layout for part of the listing above.
Molecule,HCMV UL50-53 inh
CCN1C(=O)CC(c2ccccc2)Sc2ccccc21 (configuration not stated),-17
CC(C)[C@H](CO)Nc1nc(Nc2cc(N)cc(Cl)c2)c2ncn(C(C)C)c2n1,-5&-5

Next records follow.
SMILES	HCMV UL50-53 inh
Cc1ccc(N/C=C(\C#N)c2nc(-c3cc4ccccc4oc3=O)cs2)cc1F	0
Cc1occc(=O)c1OC(=O)c1ccc(C(C)(C)C)cc1	5
OC(CNC1CCCC1)Cn1c2ccccc2c2ccccc21 (configuration not stated)	1
COc1ccc(/C=C/C(=O)Nc2c(O)cccc2C(=O)O)cc1OC	-35&-35
O=C(OCc1nc2ccccc2s1)c1cc(Cl)sc1Cl	-11
CN(C)Cc1c(C(=O)NCCOc2ccc(C(=O)NO)cc2)oc2ccccc12	-10
O=c1c(-c2cscn2)coc2cc(O)ccc12	-14
COc1ccccc1-c1nnc(NC(=O)CSC2=NCCS2)s1	-1
CC(C)c1ccccc1OCC(O)CN1C(C)(C)CC(O)CC1(C)C (configuration not stated)	-8
COc1cccc2c(=O)n(CC(=O)N3CCCc4ccccc43)ccc12	4
Cc1ccc(C)n1C(CC(=O)O)c1ccc(C#N)cc1 (configuration not stated)	-3
O=C(c1ccco1)c1nnn(Cc2ccccc2)c1-c1ccccc1	-7
CC(Sc1nc2ccccc2[nH]1)C(=O)Nc1nnc(-c2ccc(F)cc2)s1 (configuration not stated)	-10
CCC1=CC2CN(C1)Cc1c([nH]c3ccccc13)[C@@](C(=O)OC)(c1cc3c(cc1OC)N(C)[C@@H]1[C@@]34CCN3CC=C[C@@](CC)(C(OC(C)=O)[C@]1(O)C(=O)OC)[C@@H]34)C2 (some centres not stated)	-5
CC1=C(C(=O)N2CCc3c(c(C(=O)NCc4nccs4)nn3Cc3ccccc3)C2)OCCO1	-12
COc1cc2nccc(Oc3ccc(NC(=O)Nc4ccc(F)cc4F)c(F)c3)c2cc1OC	-1&-14
NC(=O)c1sc2c(c1N)C(c1ccccc1Cl)CC(=O)N2 (configuration not stated)	7
CCOC(=O)COc1cc2oc(=O)cc(C)c2cc1Cl	-11
O=S(=O)(NC1CCCCC1n1cc(-c2ccccc2)nn1)c1ccccc1 (configuration not stated)	13&-3
CC(=O)OC1=C(C)NC(C)=C(OC(C)=O)C1c1ccccc1[N+](=O)[O-]	-28
FC(F)(F)c1cc(CO[C@H]2CCCN[C@H]2c2ccccc2)cc(C(F)(F)F)c1	-6
Cc1ccc(C(=O)CSc2ncnc3sc(C)c(C)c23)cc1	-7
CCCCC/C=C\C/C=C\C/C=C\C/C=C\CCCCNC(=O)c1ccc(O)cc1	-20&-20
COc1ccc(C(=O)NCc2nnc(SC)n2Cc2ccccc2)cc1	-20
CN(C)C(=O)c1c2c(nc3ccccc13)CCCC2	-2
Cc1ccc(NC(=O)CN2C(=O)CCC2=O)c(C(=O)c2ccccc2)c1	-2
Fc1cccc(-c2ccc(N3CCC(NC4CCNCC4)CC3)cc2)c1	-6
NC(=O)c1cc2ccccc2oc1=Nc1ccc(Cl)cc1Cl	-10
O=C(NCc1ccc(Oc2ccccc2)cc1)c1nc(-c2cc(Br)c(O)c(Br)c2)no1	-53
CCN1CCN(Cc2ccc(NC(=O)c3ccc(C)c(NC(=O)c4nccn4C)c3)cc2C(F)(F)F)CC1	-14
CCOC(=O)N1CCN(C(=O)CSc2nc3ccccc3s2)CC1	-4
Cc1[nH]c2ccccc2c1C(c1cccs1)N1CCC(C(N)=O)CC1 (configuration not stated)	-7
Nc1nc(-c2cc(Cl)sc2Cl)cs1	2
O=C(/C=C/c1cccc(Cl)c1Cl)Nc1cc2ccccc2oc1=O	-8
O=C1OC(c2ccccc2)=N/C1=C/c1cccc(F)c1	-2
O=C(CSC1=NCCS1)N1CCc2ccccc21	-11
Cc1c(C(=O)Nc2ccccc2)nn(-c2ccc(C(C)(C)C)cc2)c(=N)c1C#N	-20
C=CCSc1nc2ccsc2c(=O)n1-c1ccccc1	8
O=C1C=CC(=O)N1CC(c1ccccc1)c1ccccc1	-11
